Bioassay records from PubChem.
NPYLR7 agonist – mosquito NPYLR7 agonism; 270,000 tested, 0.15% active; activation, % at 10 µM; AID 1259423; HEK293T NPYLR7/Galpha15, GCaMP6s calcium fluorescence; in the data active means activation above about 40%;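 further: 0% = vehicle and 100% = reference agonist at the receptor; some compounds past the cut are filed as inactive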
NPYLR7 agonist max-min – further read-out of NPYLR7 agonist, marked with its call; activation, %; measured here: Max-Min RFU normalised activation; some inactives read as strong as hits;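 span of the calcium signal over five minutes; 0% = vehicle and 100% = native peptide agonist; compound fluorescence can raise it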
Active calls of the source: *; & = joins results of further samples.

A first look (15 entries):
SMILES	NPYLR7 agonist	NPYLR7 agonist max-min
COc1cccc(-c2nccn2C2CCCC2)c1OC(C)C(=O)O (stereo unspecified)	4	4
CC(C)CNC(=O)C(NC(=O)CC(C)C)C1CCN(C(=O)c2ccc(C(F)(F)F)cc2)CC1 (stereo unspecified)	-2	5
Cc1nc(SCCNC(=O)[C@H]2CCCO2)n[nH]1	-5	-9
CCOC(=O)c1nc2ccccc2nc1N1CCN(C(=O)c2cc(OC)cc(OC)c2)CC1	7	2
Cc1nc(CSc2ccc(C(=O)N3CCC(n4c(=O)[nH]c5ccccc54)CC3)cc2)cs1	-11	-14
CN(c1cnn(-c2ccc(C(F)(F)F)cn2)c(=O)c1Cl)C1CCc2ccccc21 (stereo unspecified)	12	4
O=C1CN(S(=O)(=O)c2ccccc2)CC(O)CN1C1Cc2ccccc2C1 (stereo unspecified)	0	13
COc1cccc(-c2nc3ccccn3c2NC(=O)c2cccc(Cl)c2)c1	-14	-7
CC(C)C(=O)c1c(C(C)C)nn2ccccc12	1	-25
CCn1cc(C(CC(=O)N2CCN(c3ccccc3OC)CC2)c2ccc(F)cc2)c2ccccc21 (stereo unspecified)	-4	7
COc1cc(CC(=O)N2CCOC(COc3cccc(C(F)(F)F)c3)C2)cc(OC)c1OC (stereo unspecified)	-5	-11
Cc1ccc2c(CN3CCN(C(=O)c4cccs4)CC3)cc(=O)oc2c1	22	9
CC(C)CCc1nc(N2CCCN(C(=O)/C=C/c3ccccc3)CC2)c2cnn(-c3cccc(Cl)c3)c2n1	25	21
O=C(NC1CCN(c2ccccc2C(=O)NCc2ccc(F)cc2)CC1)c1cccc(Cl)c1	-3	11
Cc1nc(CN(C)Cc2cccn2S(=O)(=O)c2ccccc2)no1	-1	-1

This part in full, previewed entries included:
SMILES	NPYLR7 agonist	NPYLR7 agonist max-min
COc1cccc(-c2nccn2C2CCCC2)c1OC(C)C(=O)O (stereo unspecified)	4	4
CC(C)CNC(=O)C(NC(=O)CC(C)C)C1CCN(C(=O)c2ccc(C(F)(F)F)cc2)CC1 (stereo unspecified)	-2	5
Cc1nc(SCCNC(=O)[C@H]2CCCO2)n[nH]1	-5	-9
CCOC(=O)c1nc2ccccc2nc1N1CCN(C(=O)c2cc(OC)cc(OC)c2)CC1	7	2
Cc1nc(CSc2ccc(C(=O)N3CCC(n4c(=O)[nH]c5ccccc54)CC3)cc2)cs1	-11	-14
CN(c1cnn(-c2ccc(C(F)(F)F)cn2)c(=O)c1Cl)C1CCc2ccccc21 (stereo unspecified)	12	4
O=C1CN(S(=O)(=O)c2ccccc2)CC(O)CN1C1Cc2ccccc2C1 (stereo unspecified)	0	13
COc1cccc(-c2nc3ccccn3c2NC(=O)c2cccc(Cl)c2)c1	-14	-7
CC(C)C(=O)c1c(C(C)C)nn2ccccc12	1	-25
CCn1cc(C(CC(=O)N2CCN(c3ccccc3OC)CC2)c2ccc(F)cc2)c2ccccc21 (stereo unspecified)	-4	7
COc1cc(CC(=O)N2CCOC(COc3cccc(C(F)(F)F)c3)C2)cc(OC)c1OC (stereo unspecified)	-5	-11
Cc1ccc2c(CN3CCN(C(=O)c4cccs4)CC3)cc(=O)oc2c1	22	9
CC(C)CCc1nc(N2CCCN(C(=O)/C=C/c3ccccc3)CC2)c2cnn(-c3cccc(Cl)c3)c2n1	25	21
O=C(NC1CCN(c2ccccc2C(=O)NCc2ccc(F)cc2)CC1)c1cccc(Cl)c1	-3	11
Cc1nc(CN(C)Cc2cccn2S(=O)(=O)c2ccccc2)no1	-1	-1
CC(CNC1CSCCSC1)Oc1cccnc1 (stereo unspecified)	5	5
COc1cc(OC)c(NC(=O)NCCNc2cc(N3CCCC3)nc(C)n2)cc1Cl	0	-3
O=C(C1CC1)N1CCc2c(ncnc2NCc2ccccc2-n2ccnc2)C1	-5	-7
COc1ccc(N2CCN(CCc3c[nH]c4ccc(NC(=O)C5C[C@H]5c5ccccc5)cc34)CC2)cc1 (stereo partly specified)	0	9
NCCNC(=O)c1ccc(Cl)cc1	2	-9
O=C(c1cc(F)c(F)cc1F)N1CCN(c2nccc(-c3ccc(-n4ccnc4)cc3)n2)CC1	10	0
C/C(=N\NC(=O)c1cc(-c2ccc(C)s2)[nH]n1)c1ccc(Cl)cc1	3	-4
COCCn1c(C(C)NC(=O)c2cccc(C(F)(F)F)c2)nc2ccccc2c1=O (stereo unspecified)	-2	2
Cc1ccc(Nc2c([N+](=O)[O-])ccc3c2=NC2(CCCCC2)N=3)cc1	1	0
Cc1ccc(NC(=O)C2CCCCC2)c(NC(=O)c2cc(C)[nH]n2)c1	23	15
(further entries)
SMILES	NPYLR7 agonist	NPYLR7 agonist max-min
COc1ccc(C)cc1-n1c(SCC(=O)O)nnc1C(C)OC (stereo unspecified)	15	4
CC(C)CCC1(C)NC(=O)N(CC(=O)NC2CCS(=O)(=O)C2)C1=O (stereo unspecified)	-1	-3
O=C(CCC(=O)N1CCc2c([nH]c3ccccc23)C1)NCCc1ccccn1	23	10
Cc1ccc(-c2cc(NC(=O)CC3CCCC3)n[nH]2)s1	-7	-7
Cc1cc(Nc2ccc3c(n2)C(=O)N(CC(=O)NCc2ccc(F)cc2)C3)n(C)n1	6	2
Cc1cc(C)c(S(=O)(=O)N2CCN(C(=O)C(C)n3c(=O)oc4ccccc43)CC2)c(C)c1 (stereo unspecified)	6	6
O=c1cc(N2CCCCC2)[nH]c(=O)n1C1CCCCC1	0	4
Cc1ccc(C(CN2CCOCC2)NS(=O)(=O)c2cc(C)ccc2C)cc1 (stereo unspecified)	0	-5
CC(CCc1ccccc1)NC(=O)c1ccc(-c2ccc(C3CCCCC3)cc2)s1 (stereo unspecified)	3	2
COc1ccc2[nH]cc(C3CCN(S(=O)(=O)c4ccc(Cl)nc4)CC3)c2c1	-1	14
CC(c1ccc(-c2ccc3nc[nH]c3c2)cc1)N1CCOCC1 (stereo unspecified)	28	20
O=C(CSc1nc2c(c(=O)n1CCc1ccccc1)SCC2)NCC1CCCO1 (stereo unspecified)	6	-2
O=S(=O)(NCCc1csc2nc(-c3cccs3)nn12)c1ccc(Cl)cc1	21	10
COc1ccc(NC(=O)C(C)SC2=Nc3ccccc3CS2)cc1OC (stereo unspecified)	-6	-7
Cc1ccccc1N1CCn2c1nc1c2c(=O)n(CCCO)c(=O)n1C	-5	-7
CCOc1ccc(NC(=O)Cn2cc(OC)c(=O)cc2CSc2nnnn2C)cc1	-4	-13
COc1cccc2cc(-c3nc4ccccc4[nH]3)c(=Nc3cccc(C(N)=O)c3)oc12	-3	-10
CSc1nc2nc3c(cn2n1)C(=O)CC(c1ccco1)C3 (stereo unspecified)	-2	-3
Cc1cccc(-n2ncc3c(NNC(=O)c4cccc([N+](=O)[O-])c4)ncnc32)c1	0	-1
CC(C)(C)c1ccc(CC(=O)N2CCC2(C)C(=O)NS(=O)(=O)c2ccc(F)cc2F)cc1 (stereo unspecified)	-4	-10
Cc1sc2ncn(N=Cc3cccc([N+](=O)[O-])c3)c(=O)c2c1C	-4	-10
COCCN(Cc1ccc(OC)cc1)c1c(C)nc2ccc(C(=O)N(C)CCN(C)C)cn12	-7	-11
S=c1[nH]nc(N2CCCC2)n1-c1ccccc1Cl	2	-2
CCCn1c(C(=O)NCCc2ccc(S(N)(=O)=O)cc2)cc2c(=O)n(C)c(=O)n(C)c21	-1	-2
CSCc1ccc(C(=O)NCCn2ncc3ccccc3c2=O)o1	-2	-4
Next section
SMILES	NPYLR7 agonist	NPYLR7 agonist max-min
Cc1cc2c(c(-c3ccccn3)c1)OC(CNC(=O)C1=CCCC1)C2 (stereo unspecified)	6	3
COc1cc(N2CCC(c3nc(C(C)C)no3)CC2)ncn1	9	7
CN(Cc1cc(C(C)(C)C)n[nH]1)C(=O)C1=NNC(=O)CC1	3	3
Cc1ccc(C(=O)c2ccc(CC(=O)O)n2C)cc1	-16&19&-1	-18&4&-4
CCc1c(C)nn(CC(=O)NCc2cnn3ccccc23)c1C	5	4
CCOC(=O)C(=O)N1CCN(c2cc(S(=O)(=O)N(C)CCc3ccccc3)ccc2OC)CC1	5	3
Cc1nc(C(NC(=O)COc2ccccc2C#N)c2ccccc2)n[nH]1 (stereo unspecified)	5	2
Cc1ccc(C)c(NC(=O)CN(C)C(=O)c2sccc2C)c1	-1	-3
CCCCC(=O)N(C)c1c(C)nc2ccc(C(=O)N3CCN(C)CC3)cn12	0	-7
Cc1ccc(Nc2nc(NCCN3CCOCC3)nc3c2cnn3C)c(C)c1	7	6
O=C(Nc1cccnc1N1CCN(C(=O)NCc2ccco2)CC1)c1ccc2c(c1)OCO2	-2	-7
O=C(c1ccc(-c2ccccc2)cc1)C1CCCN(C(=O)CCC(F)(F)F)C1 (stereo unspecified)	3	3
CCn1cnnc1CNC(=O)c1ccc(S(=O)(=O)N2CCOCC2)o1	-1	6
O=C(NCC1CN(c2ccc3c(c2)OCO3)C(=O)O1)c1cccs1 (stereo unspecified)	1	3
COc1cccc(C(=O)C2CCCN(C(=O)c3ccc(C#CC(C)(C)O)cc3)C2)c1 (stereo unspecified)	0&10	-1&-3
O=C(c1cccnc1-c1ccc2c(c1)OCCO2)N1CCCC1	1	-3
C=Cc1ccc(Cn2c(C)c(C(=O)NCc3ccc(C#N)cc3)sc2=O)cc1	1	0
C=CCNCC(=O)N(Cc1ccc(F)cc1)Cc1cccs1	-21	-20
CCC(C)N(Cc1ccncc1)Cc1ccc(CO)o1 (stereo unspecified)	5	2
CC(=O)c1cnc(NC(=O)CCc2ccc(Cl)s2)s1	3	2
O=C(Nc1cccc(C2SCC(=O)N2c2ccc(F)cc2)c1)c1ccc([N+](=O)[O-])cc1Cl (stereo unspecified)	0	0
COc1ccc(-c2cc(C3CC3)c(C#N)c(N)c2C#N)cc1	7	3
CC1(C)Cc2cccc(OCCCS(=O)(=O)N3CCC(C(N)=O)CC3)c2O1	-2	1
O=C1c2ccccc2C(=O)N1CN(CCc1ccc(Cl)cc1)CN1C(=O)c2ccccc2C1=O	-3	-5
CCS(=O)(=O)c1ccccc1C(=O)N(Cc1cccnc1)c1nc2cc(C)c(C)cc2s1	-2	-5
Going on with the list.
SMILES	NPYLR7 agonist	NPYLR7 agonist max-min
C=CCCN1CC=C(CCNC(=O)C2CCCCC2)CC1	-4	-5
COc1ccccc1N1CCN(CCN2C(=O)c3ccccc3C(C)(C)C2=O)CC1	4	-7
CC(=O)N1CCC(CCNC(=O)Nc2cc(F)ccc2Cl)CC1	-5	-5
Cc1ccc(-n2ncc3c(C(C)C)nn(CC(=O)N4CCc5ccccc54)c(=O)c32)cc1C	6	2
CCCN(CCc1c[nH]c2ccc(NC(=O)CC(=O)OCC)cc12)CC1CC1	2	8
COc1cccc(NC(=O)Nc2ccc(N3CCCCC3)c(C(=O)NCCc3ccccc3)c2)c1	17	28
CCn1c(C2CCNCC2)nn(Cc2ccccc2-n2cccn2)c1=O	0	-2
COCCN1C(=O)NC(Cc2ccc(F)cc2)(C2CCN(C(=O)C3Cc4ccccc4O3)CC2)C1=O (stereo unspecified)	3	-1
COc1ccc(S(=O)(=O)N(CC(=O)Nc2cc(-c3ccccc3)nn2-c2ccccc2Cl)CC(C)C)cc1	-3	7
CC1CCN(c2ncnc3c2cnn3Cc2ccccc2Cl)CC1	6	11
COc1ccc(-c2cc(C(F)(F)F)n3ncc(C(=O)Nc4sc5c(c4C(=O)OC(C)C)CCCC5)c3n2)cc1	5	2
CC1CC/C(=C/C(=O)N2CCN(C(C)C)CC2)C1 (stereo unspecified)	-1	-6
CCCc1c(C)nn(-c2ccc(C(=O)NCc3ccc4c(c3)OCO4)cc2)c1C	-2	-11
CC1CC(c2cccc(F)c2)N(C(=O)NC(C)c2nncn2C)C1 (stereo unspecified)	-28	-27
CC1CN(C(C)(C)CNC(=O)c2ccc(=O)[nH]n2)CC(C)O1 (stereo unspecified)	1	15
CCS(=O)(=O)c1ccc(-c2ccc(NS(=O)(=O)c3cccs3)cc2)nn1	3	2
CCCNC(=O)Cn1nc2c(c1NC(=O)Cc1ccc(OC)c(OC)c1)CSC2	2	14
COc1ccc(-c2cc(NC(=O)CCc3ccccc3)n(-c3cc(Cl)ccc3Cl)n2)cc1	0	-1
CN(CC1Cc2ccccc2O1)C(=O)CCn1nnnc1CN1CCOCC1 (stereo unspecified)	5&-1	1&-4
CCCNC(=O)Nc1ccc(-c2c(-c3ccc(OC)cc3OC)nn(-c3cc(C)ccc3C)c2OC(C)=O)cc1	-1	5
CS(=O)(=O)Nc1cc2c3c(c1)CC(=O)N3CCC2	0	-3
O=C(NCc1ccc(F)cc1)c1ccc(CSc2nnc(-c3cccs3)n2-c2ccc(F)cc2)cc1	19	23
CCC(N)c1nc(C)c(C)s1 (stereo unspecified)	5	1
COc1ccc2nc(-n3nc(C)cc3NC(=O)c3ccno3)sc2c1	-9	-15
CC(C)CCNC(=O)C1(C)CCN1Cc1ccccc1Cl (stereo unspecified)	7	1
(list continues)
SMILES	NPYLR7 agonist	NPYLR7 agonist max-min
COc1ccc(CC(=O)N2CCC[C@@H]2C(=O)NCCCNC(=O)c2ccc(F)cc2)cc1	19	22
COCCN(Cc1c(-c2ccccc2)noc1N1CCCC1)C(=O)c1cccc(F)c1	-5	14
COC(=O)C(C)n1c(=O)c2c(nc3n(-c4ccc(C)c(C)c4)c(C)c(C)n23)n(C)c1=O (stereo unspecified)	0	4
COc1ccnc(-c2cccc(OC)c2OC)n1	4	2
NS(=O)(=O)c1ccc(NS(=O)(=O)c2cccs2)cc1	0	-2
Ic1ccccc1NC1=NCCC1	-2	1
c1ccc(C(Cn2ccnc2-c2ccc3c(c2)OCCO3)N2CCOCC2)nc1 (stereo unspecified)	10	-1
COc1ccc(CN2CCC2(C)C(=O)N2CCN(C)CC2)c2ccccc12 (stereo unspecified)	-3	-9
CCCC(=O)NCCc1csc2nc(-c3cccs3)nn12	21	22
Fc1ccc(C2c3cccn3CCCN2Cc2ccoc2)c(F)c1 (stereo unspecified)	4	24
CC(NC(=O)c1cccc2ccnn12)c1cn2ncsc2n1 (stereo unspecified)	-1	-1
CCCCNC(=O)C1(C)CCCCN1C(=O)c1cc(C)n(C(C)(C)C)n1 (stereo unspecified)	4	4
CCNC(=O)Cn1c(CO)cnc1SCc1c(F)cccc1Cl	5	3
COc1ccc(OC)c(Nc2nc3nonc3nc2Nc2ccc(F)cc2)c1	3	-1
CCOC(=O)NC(Nc1nccs1)(C(F)(F)F)C(F)(F)F	-2	0
Cc1oc2nc[nH]c(=O)c2c1C(=O)NCc1ccccc1F	7	1

Not all compounds are listed, so the mix of outcomes need not match the whole.
